Ba CapD inh: blocks the Bacillus anthracis CapD enzyme. purified CapD enzyme, fluorescence intensity read-out; hits give low values; some hits fall short of the stated cut. z-score (test concentration not listed). hit rate 0.23% among 140,000;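 active means z-score under -4 in either of two replicates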;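 further: stock transfer was 100 nL into about 40 µL; score is relative to mean and spread of the plate; one replicate is shown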
AID504770: E. coli YBA685 growth inhibition, screen for V. cholerae RctB inhibitors | z-score (no concentration beside the values) | hit rate 0.27% among 130,000 | E. coli YBA685 rctB-dependent plasmid, OD600 growth, 3 h; hits give low values;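 active means z-score under -2 on both plates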;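 further: wells of about 30 µL received 100 nL stock; score is relative to mean and SD of the test wells; the first replicate is given; strong numbers were not always called active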
Active calls of the source: *; x = no result given. An excerpt; count on the stated rates, not on these rows.

Compound | Ba CapD inh | AID504770
Cc1ccc(N2C(=O)C(N3C(=O)c4c(Cl)c(Cl)c(Cl)c(Cl)c4C3=O)C2c2cccc(Br)c2)cc1C (configuration not stated) | 0.09 | x
O=C(CN(CCO)CCO)N(C1CCCCC1)C1CCCCC1 | x | 1.25
O=C(OCCN1CCOCC1)c1sc2ccccc2c1Cl | 0.51 | -0.7
COC(=O)CN(C#N)c1nc(NCc2ccccc2)nc(OC)n1 | 0.43 | x
CC(C)(C)c1ccc(-c2noc(CS(=O)(=O)c3ccc(Cl)cc3)n2)cc1 | -0.65 | 0.15
COc1ccc(-c2nc3ccccc3n2C(C)C)cc1OC | 0.73 | -0.2
CCc1ccc(N2CCN(S(=O)(=O)CC34CCC(CC3=O)C4(C)C)CC2)cc1 (configuration not stated) | 1.41 | 0.8
O=C(CSC1=NC(=O)C(Cc2ccccc2)C(=O)N1)Nc1cccc(Cl)c1 (configuration not stated) | -0.55 | x
CC(=O)c1cc2c(cc1NC(=O)c1cc3nc(-c4ccc5c(c4)OCO5)cc(C(F)(F)F)n3n1)OCO2 | -0.45 | x
Cc1ccc2c(c1)C(C)CC(C)(C)N2C(=O)Nc1cccc(Cl)c1 (configuration not stated) | -0.01 | x
Cc1nc(-c2ccccc2)sc1C(=O)/C=C/c1ccc(Oc2ccccc2)cc1 | -1.73 | x
N#CCCN(Cc1cccs1)S(=O)(=O)c1cccc2nsnc12 | 0.29 | -0.3
O=C(Nc1cccc2[nH]ncc12)c1ccco1 | 0.045 | -0.3
CCCCNC(=O)N(O)C1N(/N=C/c2ccco2)C(=S)SC1(C)C (configuration not stated) | -1.35 | x
CC(C)(CO)NC(=O)c1ccc(Cl)cc1Cl | 0.605 | -0.1

Some of the entries so far, with values under each structure.
The line under a structure holds: Ba CapD inh	AID504770
O=C(CSC1=NC(=O)C(Cc2ccccc2)C(=O)N1)Nc1cccc(Cl)c1 (configuration not stated)
    -0.55	x
CC(=O)c1cc2c(cc1NC(=O)c1cc3nc(-c4ccc5c(c4)OCO5)cc(C(F)(F)F)n3n1)OCO2
    -0.45	x
Cc1ccc2c(c1)C(C)CC(C)(C)N2C(=O)Nc1cccc(Cl)c1 (configuration not stated)
    -0.01	x
Cc1nc(-c2ccccc2)sc1C(=O)/C=C/c1ccc(Oc2ccccc2)cc1
    -1.73	x

Additional entries follow:
Compound | Ba CapD inh | AID504770
COc1cc(/C=C2/SC(=Nc3cc(C)cc(C)c3)NC2=O)cc(Br)c1OC | -0.295 | 0.1
Cc1cc(C(=O)NNCc2ccccc2)no1 | 0.345 | x
CC1CCN(c2ccc(C(=O)O)cc2)CC1 | x | -0.8
CCC(=O)Nc1nc2c(s1)C(=O)CC(C)(C)C2 | -0.06 | x
N#CCCn1nc(-c2ccccc2)cc1Nc1ccccc1N | x | 0.6
COc1cccc(/C=N/N2C(=O)CSC2=S)c1O | 13 | -0.45
c1nc2c3c4c(sc3ncn2n1)CCCC4 | 0.245 | 1.95
CCOc1ccc(-c2c(C)sc(=Nc3ccccc3)n2Cc2ccco2)cc1 | x | -0.1
CC(=O)Oc1ccn(C)c(=O)c1C#N | 0.285 | -0.85
O=C(CSc1n[nH]c(=O)n1-c1ccccc1)N1CCC(C(F)(F)F)CC1 | -0.15 | -0.1
Cc1cc(C)c2c(n1)nn1c(C)c(CCC(=O)NCC3CCCO3)c(C)nc21 (configuration not stated) | 1.47 | -0.25
COC(=O)c1c(NC(=S)Nn2cnnc2)sc2c1CCC(C)C2 (configuration not stated) | 1.62 | -0.2
Cc1ccccc1Cn1c(=O)n(Cc2ccco2)c(=O)c2ccc(C(=O)NCCc3ccccc3)cc21 | -0.145 | -2.25
O=C(NCCCN1CCCC1=O)c1ccc2nc(N3CCOCC3)sc2c1 | 0.37 | -1.45
O=C(Cc1csc(-c2ccccc2)n1)N/N=C/c1ccc([N+](=O)[O-])c(O)c1 | -1.09 | x
C=CCn1c(SCC(=O)NC(=O)NCc2ccco2)nc2ccc(Cl)cc2c1=O | x | 2
CCN1C(=O)/C(=C\C=C\c2ccccc2)SC1=S | 0.09 | 0.8
COc1ccc(C(=O)NC(c2ccc(C)cc2)c2cc(Cl)c3cccnc3c2O)cc1 (configuration not stated) | -0.44 | 0.3
Cc1ccc2c(c1)c(=O)c1ccccc1n2CC(=O)Nc1cc(Sc2ccc(F)cc2)cc([N+](=O)[O-])c1 | 0.505 | x
CC(C)(C)OC(=O)N/N=C\c1cccnc1 | 0.31 | 0.1
COc1ccc(N2CCN(CC(=O)NC(=O)NC3CCCC3)CC2)cc1 | x | -1.3
CCCCCn1c(SCC(=O)NCCc2ccccc2)nc2cc(C(=O)NCc3ccco3)ccc2c1=O | -0.485 | x
CCOC(=O)Cn1nc(-c2ccc(F)cc2)oc1=O | x | -0.05
O=C1c2ccccc2-c2nc3ncnn3c(-c3ccccc3)c21 | -0.645 | -1.05
O=C(Nc1ccccc1)Nn1cnnc1 | -0.43 | -0.5
CC(C)N(C(=O)COn1ccc2ccc(S(C)(=O)=O)cc21)C(C)C | 20.4 | x
O=C(OCc1nc2ccccc2s1)c1ccc2c(c1)OCCO2 | 0.405 | -1.4
Oc1ccc(Br)cc1C1Nc2ccccc2C(c2ccccc2)(c2ccccc2)O1 (configuration not stated) | -0.465 | x
Cc1nnsc1C(=O)NNC(=O)OCC1(c2ccc(Cl)cc2)CC1 | -0.21 | x
CC(=O)Oc1ccc2c(=O)c(-c3ccccc3)coc2c1 | -1.1 | 0
CCOc1ccccc1C(=O)Nc1ccccc1 | x | -0.9
CC(=O)C1=C(C)NC(C)=C(C(=O)OCc2ccccc2)C1c1ccc(F)cc1 (configuration not stated) | -0.285 | x
CN(C)C(=O)Nc1cc2sccc2nc1C(F)(F)F | -0.24 | x
COc1cccc(C(=O)N2c3ccccc3N3C(c4c(C)c(Cl)c(C)c(Cl)c4C)=NON23)c1 | 0.57 | x
CC(CC(=O)O)CC(=O)Nc1ccccc1C(=O)O (configuration not stated) | -0.57 | 0.35
CC(=O)Nc1ccc(NC(=O)/C=N/O)cc1 | -0.11 | 0.8
COc1ccc(C(=O)CSc2ncccn2)c(OC)c1 | x | -0.15
CCc1ccc(N=C2NC(=O)/C(=C/c3cc(C)n(CC)c3C)S2)cc1 | -1.36 | 0.5
COc1cccc(NC(=O)CCN2CC(C)CC(C)C2)c1 (configuration not stated) | x | 0.1
c1ccc2sc(N3CN(CCN4CCOCC4)CN(c4nc5ccccc5s4)C3)nc2c1 | -0.175 | 1.05
O=C(OCN1C(=O)c2ccccc2C1=O)c1ccccc1O | x | 0.65
COc1ccc(OCCSc2ncn[nH]2)cc1 | x | 0.65
CS(=O)(=O)Nc1ccc(-c2n[nH]c(=S)n2-c2ccccc2)cc1 | 1.25 | -0.6
CCCC(C)NC1=NCCCCC1 (configuration not stated) | x | -0.05
CCOc1ccc(OCC(=O)OC(C)C(=O)Nc2ncc(Cl)cc2Cl)cc1 (configuration not stated) | x | 0.55
CCC(C(=O)Nc1ccc(N2CCOCC2)cc1)c1ccccc1 (configuration not stated) | x | 2.05
CC1CCCN(C(=O)c2cc3ccccc3oc2=O)C1 (configuration not stated) | 0.835 | 0
N/C(Cc1ccccc1)=N\O | 0.22 | x
CC1=C(C(=O)C(F)(F)F)CCC(=O)N1C1CCCCCC1 | x | -1.25
CC(C)C1Nc2ccc(C(=O)O)cc2C2C=CCC21 (configuration not stated) | -0.64 | 0.1
CC(=O)NCCNc1nc(-c2cccnc2)nc2ccccc12 | x | -0.85
O=C(CSc1nnc2sc3ccccc3n12)Nc1ccc2ccccc2c1 | -1.21 | x
Cc1cnc(C(=O)OCc2cc(=O)n3ccsc3n2)cn1 | x | -0.85
FC(F)(F)C1=Nc2ccccc2N(c2ccc(Cl)c(Cl)c2)C1 | 0.105 | 0.3
O=c1oc2ccccc2c2c1ncn2-c1ccccc1 | 0.115 | -0.85
Oc1c(C(c2ccccc2)N2CCCCC2)sc2ncnn12 (configuration not stated) | -0.785 | 1
O=C(CSc1ncnc2ccccc12)NC1CCCC1 | -0.505 | 0.95
CCCNC(=O)N1CCCCC1C (configuration not stated) | -0.175 | 1.85
O=C(CSc1nc2ccccc2s1)Nc1c(Cl)cccc1Cl | -0.05 | x
CCOC(=O)C1=C(N)OC2=C(C(=O)CC(c3ccccc3)C2)C1c1cc(OC)ccc1OC (configuration not stated) | -1.21 | x

Continuation.
mol	Ba CapD inh	AID504770
FC(F)(F)c1cccc(N=c2scc(-c3ccc(Cl)cc3)n2CCc2ccccc2)c1	0.99	x
CCCCOc1ccc(-c2nc(NC(=O)CC)c3c(=O)oc4ccccc4c3n2)cc1	1.43	x
CCOC(=O)c1c(NC(=O)CSc2nnc(CNC(=O)c3ccco3)n2-c2ccc(F)cc2)sc2c1CCCC2	-0.25	x
O/N=C/c1ccco1	x	0.35
O=C(c1ccno1)n1nccc1-c1cc(-c2ccccc2)no1	15.3	-0.7
COc1ccc(CN(C(=O)CN2C(=O)COc3ccccc32)C2CCCC2)c(OC)c1	x	-0.15
CCn1c(-c2ccc3c(c2)OCCO3)cnc1SCC(=O)Nc1sccc1C#N	x	0.3
CCN1CCN(Cc2ccc(NC(=O)c3ccc4c(c3)N(CC)CCS4)cc2)CC1	21.4	-1.7
CCN(CC)C(=O)NCC1CCCO1 (configuration not stated)	1.53	0.15
O=C(NCc1ccccc1)c1ccc(CN2CC(=O)N3CCCCC3C2=O)cc1 (configuration not stated)	0.435	-2.5
Cn1nc(-c2ccc(Br)s2)c(Br)c1C(F)(F)F	0.2	-0.35
CCCCCCCc1nc2c(=O)[nH]c3ccccc3c2o1	1.67	-0.05
CCCCOc1ccc(C(=O)OC(C)CN(C)C)cc1 (configuration not stated)	0.14	-0.6
OC(c1c(F)c(F)c(F)c(F)c1F)c1c(F)c(F)c(F)c(F)c1F	0.335	-0.25
Cc1cccc(C)c1N(C)C(=O)c1cc2sccc2nc1C(F)(F)F	-0.305	x
Cc1ccc(S(=O)(=O)c2nc(N3CCN(c4ccccc4)CC3)sc2Cl)cc1	x	1.3
O=C(OCCc1ccccc1C(F)(F)F)N1CCCN(Cc2ccc(Cl)c(Cl)c2)CC1	-0.965	x
COC(=O)Cc1c(C)c2ccc(OC(C)C)cc2oc1=O	95.6	-0.8
CN(C)C(=O)c1cccc2c1-c1ccccc1C2	0.55	0.2
CCOC(=O)N1CCC(n2c(SCC(=O)NC(C)CC)nc3ccccc3c2=O)CC1 (configuration not stated)	-0.68	-0.65
CCOC(=O)c1sc2ncnc(NCc3ccccc3OC)c2c1C	3.04	x
COC(=O)CN1C(c2ccc(OC)cc2)=Nc2ccc(Cl)cc2C1c1ccccc1 (configuration not stated)	-0.01	-0.15
Cc1ccc(NC(=O)COc2ccc(/C=c3/sc4n(c3=O)CCN=4)cc2)cc1	0.115	-0.35
CCCCCCN(CCCCCC)c1ccc(C(=O)O)cc1	0.14	x
O=C(CN1C(=O)CCc2ccccc21)NC1CCCCC1	0.085	-0.65
CCOC(=O)c1c2c3c(c(Cl)ccc3[nH]c1=O)C(=O)c1ccccc1-2	-0.51	-0.65
CCC12CN(C(=O)c3ccco3)CC(CC)(CN(C(=O)c3ccco3)C1)C2=O	-0.19	-0.05
O=C1SCCC1NS(=O)(=O)c1ccc(Cl)c(Cl)c1 (configuration not stated)	-0.565	0.5
C=CCN(CC=C)S(=O)(=O)c1ccc(C(=O)Nc2ccc3c4c(cccc24)C(=O)N3CC)cc1	-0.455	x
O=C(COC(=O)/C=C/c1cccs1)Nc1nc2ccccc2s1	x	0.1
Cc1cc(C(F)(F)F)nc(SCCNC(=O)c2ccccc2F)n1	-0.23	-0.05
CCCc1cnc(N2CCCN(S(=O)(=O)c3ccc(C)cc3)CC2)nc1	2.4	0.3
CC(=O)Oc1c(C(C)=O)c2ccccn2c1-c1ccc(C(F)(F)F)cc1	30.9	x
CCn1nc(C)cc1/C(N)=N/O	-0.255	0.5
CCCS(=O)(=O)c1c(S(=O)(=O)CCC)c2cc(-c3ccncc3)ccn2c1C(=O)N/N=C/c1ccc(N(C)C)cc1	-0.31	x
O=C(OCC(=O)N(Cc1ccccc1)C1CCS(=O)(=O)C1)c1ccc(-n2cnnn2)cc1 (configuration not stated)	x	-0.9
CN(C(=O)c1cccc(NC(=O)[C@H]2[C@@H]3C[C@@H]4[C@H]2C(=O)O[C@@H]4C3)c1)c1ccccc1	-0.345	-0.45
O=C(N/C(=C\c1ccc(F)cc1)C(=O)N1CCOCC1)c1ccccc1	x	-1.15
CCOC(=O)c1sc2ncnc(Nc3ccc(F)cc3Cl)c2c1C	0.455	x
Nc1ncc(OCc2ccccc2)c(=O)[nH]1	-0.215	-0.7
Brc1cnc(-n2cccc2)nc1	0.115	-0.4
CC(=O)n1c2c(c3ccccc31)OC(N)=C(C#N)C2c1ccccc1C(F)(F)F (configuration not stated)	0.535	x
Nn1c(C(=O)NCc2cccnc2)nc2ccccc2c1=O	-0.155	-0.25
Cc1ccc(C)c(Oc2ncnc3c2oc2ccccc23)c1	x	-0.1
Cc1cccc(NC(=O)C2COc3ccccc3O2)n1 (configuration not stated)	0.5	-0.55
Cc1ccc(C)n1-c1ccc(-n2cccc2)cc1	0.365	0.2
Cc1cc(-n2c(SCC(=O)N3CCCC3)nc3n[nH]c(C)c3c2=N)ccc1Cl	8.93	-0.1
CCN(Cc1nnc(-c2ccccc2)o1)C1CCCCC1	-0.695	0
CCCN1Cc2cccc(C(=O)Nc3ccc(S(=O)(=O)N4CCCCCC4)cc3)c2C1=O	-0.78	0.65

Part of the list above, set out differently:
Cc1ccc(C)c(Oc2ncnc3c2oc2ccccc23)c1
  Ba CapD inh: x | AID504770: -0.1
Cc1cccc(NC(=O)C2COc3ccccc3O2)n1 (configuration not stated)
  Ba CapD inh: 0.5 | AID504770: -0.55
Cc1ccc(C)n1-c1ccc(-n2cccc2)cc1
  Ba CapD inh: 0.365 | AID504770: 0.2
Cc1cc(-n2c(SCC(=O)N3CCCC3)nc3n[nH]c(C)c3c2=N)ccc1Cl
  Ba CapD inh: 8.93 | AID504770: -0.1
